PINK1 modulator: modulators of PINK1 expression; PINK1 immunofluorescence, high-content cytometry, 24 h; Potency, µM (titrated, usually from 76.6 µM), inactives show at the highest dose activation (PINK1 increase), hits mostly activators; actives 0.2% (n = 410,000); AID 624263; active = well fitted activation curve with a large enough effect; inconclusive = small, poorly fitted or top-dose-only effect; inactive = flat fitted curve, though single readings scatter; cell line not stated here;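 also: potency is read from the fitted curve at half-maximal effect; % of control where 0% means no effect; nearly all actives have a fitted effect of over 65% in size; a mitochondrial uncoupler was the plate control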
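Compound titrations (5 concentrations, 24 h) on a stable cell line; DMSO and CCCP controls. Endpoint: fixed-cell PINK1 immunofluorescence with mitochondrial, cell and nuclear markers, scanned by microplate cytometer.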
D2 PAM: human D2 receptor positive allosteric modulation | P14416 | DiscoveRx D2 beta-arrestin cells, luminescence, 90 min; 100% = 57 uM dopamine signal | potentiation, % (concentration not given with the values) | actives 0.23% (n = 360,000) | AID 624464; active = potentiation of 50% or more; inconclusive = 30% to 50%; inactive = 30% or less;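 also: compound concentration not given in the record; tested on top of an EC20 dose of dopamine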
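PathHunter beta-arrestin assay in DiscoveRx D2 cells. Compounds were added with an EC20 of dopamine (50 nM final) for 90 min at 37 deg C. Luminescence was read 1 h after detection reagent, with 57 uM dopamine as the EC100 control.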
Six1-Eya2 blk: inhibitors of human Six1/Eya2 interaction; AlphaScreen GST-Six1/His-Eya2 binding, biochemical; hits give low values; control for the full effect not named in the record; AID 651725; actives 0.56% (n = 360,000); activity change, % (test concentration not listed); in the data active = activity change below about -65%; inconclusive = about -30% to -65%; inactive = above about -30%; also: % is scaled to controls: 0 for no effect and ±100 for the full control effect; compound concentration not given in the record
Target sequence (O00167 whole entry, looked up): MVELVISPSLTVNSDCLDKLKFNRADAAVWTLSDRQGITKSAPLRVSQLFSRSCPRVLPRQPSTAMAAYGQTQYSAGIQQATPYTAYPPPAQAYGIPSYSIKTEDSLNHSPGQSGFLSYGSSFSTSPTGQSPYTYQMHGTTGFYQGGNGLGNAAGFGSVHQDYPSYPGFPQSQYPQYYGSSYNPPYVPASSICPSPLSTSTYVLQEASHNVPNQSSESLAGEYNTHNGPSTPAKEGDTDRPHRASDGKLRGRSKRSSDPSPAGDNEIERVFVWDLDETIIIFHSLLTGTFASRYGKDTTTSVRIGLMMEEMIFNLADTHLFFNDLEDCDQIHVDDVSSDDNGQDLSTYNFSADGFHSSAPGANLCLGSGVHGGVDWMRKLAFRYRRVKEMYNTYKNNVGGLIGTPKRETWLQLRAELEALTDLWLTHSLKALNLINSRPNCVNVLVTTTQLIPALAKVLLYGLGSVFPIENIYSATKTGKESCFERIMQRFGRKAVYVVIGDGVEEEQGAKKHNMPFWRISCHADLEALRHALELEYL
Target sequence (Q15475 whole entry, looked up): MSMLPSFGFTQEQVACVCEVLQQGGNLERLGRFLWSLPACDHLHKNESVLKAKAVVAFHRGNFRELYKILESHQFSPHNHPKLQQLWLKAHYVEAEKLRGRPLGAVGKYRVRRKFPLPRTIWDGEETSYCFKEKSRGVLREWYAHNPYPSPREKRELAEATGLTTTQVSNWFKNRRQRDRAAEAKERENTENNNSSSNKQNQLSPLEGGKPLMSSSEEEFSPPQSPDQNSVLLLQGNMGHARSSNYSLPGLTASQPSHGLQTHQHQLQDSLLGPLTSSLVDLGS
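AlphaScreen luminescence read after one hour at 37 °C in darkness. Pin-transferred compounds met GST-Six1 and His-Eya2 protein (5X stock 250 nM/500 nM) plus glutathione donor and Ni-chelate acceptor beads (5X, 50 ug/mL).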
CtBP-E1A inh: blocks the CtBP interaction with E1A; AlphaScreen GST-E1A/His-CtBP binding, 1536-well; hits give low values; control for the full effect not named in the record; activity change, % (test concentration not listed); actives 0.49% (n = 340,000); in the data active means activity change below about -65%; inconclusive means about -30% to -65%; inactive means above about -30%; also: % is scaled to controls: 0 for no effect and ±100 for the full control effect; compound concentration not given in the record
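Homogeneous bead-based format: GST-tagged E1A captured on glutathione donor beads, His-tagged CtBP on nickel acceptor beads; compounds precede bead addition by 2 h at 37 °C.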
TRPV1 potentiator: human TRPV1 potentiation | Q8NER1 | TRPV1-expressing cells, Fluo-8 calcium influx, capsaicin EC20 potentiation; host cell line not named in the record; control for the full effect not named in the record | potentiation, % at 8.33 µM | actives 0.02% (n = 320,000) | AID 540277; active means potentiation above 80%; inconclusive means 30% to 80%; inactive means below 30%; also: 0% is about no effect
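Cells expressing TRPV1 were dye-loaded with Fluo-8 and read kinetically: 10 s baseline, 3 min after compound (agonist portion), then 2 min after EC20 capsaicin (allosteric enhancer portion). Calcium-bound dye fluorescence at 480/520 nm.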
Sfp inh: blocks B. subtilis Sfp PPTase activity; AID 1490; Biochemical Sfp PPTase activity, qHTS; actives 3.5% (n = 310,000); Potency, µM, without a hit: max response, negative = inhibition, usual class: inhibitors; Q9F4F7; active = well fitted inhibition curve with a large enough effect; inconclusive = small, poorly fitted or top-dose-only effect, or another doubt; inactive = no such curve, though single readings can be large or run the other way;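 also: the enzyme is Sfp with the accession as filed and its product quenches rhodamine fluorescence; potency is read from the fitted curve at half-maximal effect; 0% = enzyme reaction without inhibitor and -100% = no enzyme wells; top concentration of the series not given in the record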
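After 15 min at room temperature with compound, 15 nM Sfp received 5 uM rhodamine-CoA plus 12.5 uM BHQ-2-ybbR (50 mM Hepes pH 7.6, 10 mM MgCl2). Rate came from the fluorescence difference over 30 min, ex 525/em 598 nm.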
D2 agonist: activates the human D2 dopamine receptor; activation, % (no concentration beside the values); actives 0.084% (n = 360,000); DiscoveRx PathHunter D2 beta-arrestin, luminescence, 90 min; 100% = 57 uM dopamine signal; P14416; in the data active = activation above about 40%; inconclusive = about 15% to 40%; inactive = below about 15%; also: compound concentration not given in the record; the text of the record calls up to 30% inactive
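DiscoveRx PathHunter D2 beta-arrestin cells (2,100/well) attached overnight, then compound-stimulated 90 min at 37 C in HBSS/10 mM HEPES/0.1% Tween-20 buffer; beta-galactosidase complementation read by luminescence after 1 h at ambient temperature. Dopamine 57 uM final (EC100) as control.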
* = called active by the depositor; ? = inconclusive; · = no result given; [ ] = remark or other dose. Compounds were not picked by outcome; about 3.7% have a hit in one of these screens.

SMILES | PINK1 modulator | D2 PAM | Six1-Eya2 blk | CtBP-E1A inh | TRPV1 potentiator | Sfp inh | D2 agonist
Cc1onc(-c2ccccc2)c1C(=O)NNC(=S)NC(=O)c1ccc(F)cc1 | 0.0% | -5 | -9 | -3 | -15 | -14% | -1.8
COc1cc(CNC(=O)c2cc(-c3cc(F)ccc3OCC3CCCO3)n[nH]2)cc(OC)c1 (stereo not given) | 0.1% | 3 | -11 | -2 | · | · | 5.2
Clc1cccc(OCCCN2CCCC2)c1Cl | -0.1% | -14 | 9 | · | -3 | 14% | -4.8
O=C(NC1CCCC1)C1CCN(S(=O)(=O)c2cccc3cccnc23)CC1 | 0.9% | 4 | 11 | 0 | 4 | 12% | -1.1
CCN(CC)CCCN1C(=O)C2C(C(=O)Nc3ccc(C(C)C)cc3)C3C=CC2(O3)C1C(=O)NC1CCCCC1 (stereo not given) | 1.2% | -4 | 7 | 3 | -8 | 11% | 4.2
CC12CCC(C(=O)NCc3ccccc3Cl)(CC1=O)C2(C)C (stereo not given) | 0.8% | -4 | -2 | 6 | 4 | 13% | -0.7
CCOc1ccc(NC(=O)C/C(C)=N/NC(=O)Cc2cccs2)cc1 | -0.8% | -1 | -3 | -2 | -3 | 5% | -4.1
COc1cccc(C(=O)CN2CCN(S(=O)(=O)c3ccc(Br)cc3)CC2)c1 | -2.0% | -1 | 7 | 0 | 23 | -2% | -2.7
COc1ccc(-c2noc(CCC(=O)NCCN(C)Cc3ccccc3)n2)cc1 | 0.6% | -50 | -12 | -1 | 8 | 5% | 0.8
CSc1nnc(NC(=O)c2ccc3c(c2)OCO3)s1 | 3.0% | -2 | -1 | 0 | -16 | 4% | -4.5
CC1=NN(c2nc(C)cc(C)n2)C(=O)C1CCC(C)C (stereo not given) | ? | -8 | -4 | 11 | -8 | 5% | -4.6
COc1cc2[nH]c(=S)n(C3CC3)c(=O)c2cc1OC | 2.3% | -16 | -16 | -5 | 10 | -2% | -2.5
CCOC(=O)CSc1nc(=O)n2cc(C)ccc2n1 | 0.6% | -5 | -2 | 0 | -7 | 17% | 1.6
COc1ccc(N2CCN(C(=O)c3ccccc3)CC2)c([N+](=O)[O-])c1 | 0.2% | -2 | -3 | -8 | -11 | 9% | -5.8
O=C(NCc1ccc2c(c1)OCO2)c1cccnc1 | 0.2% | -13 | -9 | 11 | 7 | 13% | -3.6
CN(CCOc1ccccc1)CC(=O)Nc1cccc(Br)c1 | 1.2% | -8 | 12 | -4 | -14 | -41% | -4.1
CCOc1ccc(C2C(C(C)=O)=C(O)C(=O)N2CCc2c[nH]c3ccccc23)cc1 (stereo not given) | 1.7% | -4 | -1 | · | 2 | -11% | -2.9
N/C(Cc1nc(-c2ccc(Cl)cc2)cs1)=N/O | 2.3% | 0 | 10 | -4 | -10 | 18% | 2.6
CCN(CC)CCC(c1ccc2c(c1)OCO2)c1c(OC)cc(OC)c2ccc(=O)oc12 (stereo not given) | -1.6% | -17 | 3 | 0 | 3 | 23% | -1.6
COC(=O)CNC(=O)C(C)NC(=O)OCc1ccccc1 (stereo not given) | -0.9% | 13 | -15 | -7 | 6 | -3% | -2.4
COc1ccc(C)c2sc(N(CCN(C)C)C(=O)c3ccc4ccccc4c3)nc12 | -0.5% | -27 | -21 | -16 | 15 | -30% | -2.9
CCOC(=O)N/N=C(\C)c1ccc(-n2cnnn2)cc1 | -1.4% | -16 | -5 | 13 | -21 | 15% | 1.3
Cc1cs/c(=N\N=C2CCCCC2)n1Cc1ccco1 | 0.8% | -5 | -27 | -8 | 11 | 6% | 1.2
CCOC(=O)N1CCN(c2nc3ccccc3nc2C(C#N)S(=O)(=O)c2ccc(C)cc2)CC1 (stereo not given) | -2.1% | 13 | -1 | 1 | -7 | 14% | 1.8
COc1ccc(/C=N/NC(=O)c2csc(-n3nc(C)cc3C(F)(F)F)n2)cc1 | 3.0% | -9 | 2 | 1 | 8 | 17% | -3.5
CN(CC(=O)Nc1ccc(Cl)c(C(F)(F)F)c1)C(=O)Cc1ccsc1 | -1.3% | -42 | -4 | -2 | 12 | · | -2.1
NC(=O)c1cccc2c1-c1ccccc1/C2=N/NC(N)=S | -0.2% | -12 | -27 | · | -6 | -20% | -1.6
CCCCNC(=O)NNC(=O)c1ccco1 | 0.5% | -6 | 12 | 4 | -5 | 2% | -4.2
Cc1ccc(NC(=O)c2csnn2)c(C)c1 | 3.9% | -4 | -1 | 8 | 2 | 4% | 0.7
COc1ccccc1NC(=O)N(Cc1cccs1)Cc1cc2cc3c(cc2[nH]c1=O)OCO3 | 7.6% | -2 | -14 | 2 | 22 | -6% | 5.0
CN(C)CCNC(=O)COc1ccc(Cl)cc1Cl | 0.8% | -6 | 2 | 6 | 0 | -5% | -2.0
COC(=O)CN(c1ccccc1)S(=O)(=O)c1cc(Br)ccc1OC | -0.7% | -6 | 2 | 2 | 12 | 1% | -2.4
COc1ccc(NC2=C3CCCC=C3N(c3ccc(OC)cc3)C2=O)cc1 | 2.2% | -8 | -14 | · | -2 | -5% | -3.3
CC(=O)c1ccc(NC(=O)CCCN2C(=O)COc3ccc(C)cc32)cc1 | 2.1% | -12 | 0 | 0 | -6 | 21% | -3.5
Cc1ccnc(SCc2cc(=O)c(OC(=O)c3ccc(Br)o3)co2)n1 | 1.6% | 12 | -1 | 6 | 12 | -2% | -2.6
CC(=O)Nc1nc(-c2ccccc2)c(-c2ccccc2)o1 | -0.6% | -1 | -2 | 11 | 1 | 7% | 0.6

Pulled one by one from the entries so far (2):
SMILES | PINK1 modulator | D2 PAM | Six1-Eya2 blk | CtBP-E1A inh | TRPV1 potentiator | Sfp inh | D2 agonist
COc1ccc(NC2=C3CCCC=C3N(c3ccc(OC)cc3)C2=O)cc1 | 2.2% | -8 | -14 | · | -2 | -5% | -3.3
COc1ccccc1NC(=O)N(Cc1cccs1)Cc1cc2cc3c(cc2[nH]c1=O)OCO3 | 7.6% | -2 | -14 | 2 | 22 | -6% | 5.0

Only TRPV1 potentiator (3 entries from above):
SMILES,TRPV1 potentiator
CCN(CC)CCC(c1ccc2c(c1)OCO2)c1c(OC)cc(OC)c2ccc(=O)oc12 (stereo not given),3
CC12CCC(C(=O)NCc3ccccc3Cl)(CC1=O)C2(C)C (stereo not given),4
N/C(Cc1nc(-c2ccc(Cl)cc2)cs1)=N/O,-10

Other entries.
SMILES | PINK1 modulator | D2 PAM | Six1-Eya2 blk | CtBP-E1A inh | TRPV1 potentiator | Sfp inh | D2 agonist
COc1cccc(N2CCN(CC(=O)Nc3nc4c(s3)CC(C)CC4)CC2)c1 (stereo not given) | 6.9%[38.3 µM] | -5 | -18 | -26 | -5 | 7% | -2.1
CC1=NN(c2nc3ccccc3[nH]2)C(=O)C1Cc1ccccc1 (stereo not given) | ? | 10 | -91* | -81* | 18 | 21% | -0.5
Cc1ccc(C(=O)N2N=C(c3ccccc3)CC2(O)C(F)(F)F)o1 (stereo not given) | 14% | -1 | 7 | 4 | -18 | 19% | 1.5
COc1cc(C)c(C2NC(=O)c3ccccc3N2)cc1C (stereo not given) | 12% | -12 | 1 | 10 | · | · | 1.5
CSC(=CC(=O)c1ccc(F)cc1)SC | 5.2% | -8 | 3 | 7 | -16 | -3% | -2.4
COc1cc(C2NC(=S)NC3=C2C(=O)CCC3)ccc1O (stereo not given) | 0.4% | -1 | 4 | 2 | 2 | -4% | -2.9
O=C(CCc1ccccc1)NCCS(=O)(=O)N1CCN(c2ccccc2)CC1 | 0.3% | 1 | 5 | 1 | 5 | · | -2.9
CCOC(=O)c1ccc2c(c1)n(CC)c(C)[n+]2CC | -0.7% | -17 | 0 | 0 | 6 | 10% | -2.8
COc1ccc(S(=O)(=O)Nc2ccccc2C(=O)N2CCCC2)cc1OC | 0.1% | -7 | -1 | 0 | 0 | -14% | -4.0
O=C(CN1C(=O)NC2(CCc3ccccc32)C1=O)Nc1c(Cl)cccc1Cl (stereo not given) | -0.7% | -10 | 3 | -4 | · | · | -3.9
CCc1ccc(S(=O)(=O)NCCc2cn3ccsc3n2)s1 | 0.3% | -8 | 5 | 14 | · | -4% | 1.4
Cc1ccc(Nc2nc(N)nc(CN3CCC(C)CC3)n2)c(C)c1 | -1.6% | -19 | -1 | -2 | · | · | -1.3
CCCCC1CCC(C(=O)N(C)CC(=O)Nc2cccc(OC)c2)CC1 (stereo not given) | 1.5% | -3 | 1 | · | -7 | · | -3.2
O=C(Cn1nc(C(F)(F)F)c2c1CCC2)NCc1ccc(F)cc1 | 5.1%[38.3 µM] | -3 | 2 | 5 | -20 | 5% | -1.5
CC1=NN(c2ccc(Cl)c(C(=O)O)c2)C(=O)/C1=C/c1ccc(-c2ccccc2[N+](=O)[O-])o1 | 3.5% | -8 | -10 | 3 | -3 | ? | -2.3
CC1CCCC(NC(=O)CSc2n[nH]c(N)n2)C1C (stereo not given) | 0.9% | -6 | 11 | 5 | · | · | -0.9
O=C(NCc1nnc(SCC(=O)N2CCN(c3ccccc3)CC2)o1)c1ccc(F)cc1 | 3.1% | -18 | 17 | 1 | 4 | -18% | -3.2
COc1cccc(/C=C2\SC(=S)N(CC3CCCO3)C2=O)c1 (stereo not given) | 11% | -10 | ? | -12 | -13 | -7% | 0.3
O=C(C1CCN(S(=O)(=O)N2CCC3(CC2)OCCO3)CC1)N1CCCCC1 | 1.1% | -12 | 7 | 19 | 3 | 12% | -0.2
CCn1cc(C2Nc3ccccc3C(=O)N2O)c(C)n1 (stereo not given) | 1.9% | -19 | -5 | 5 | 8 | -16% | -4.4
O=c1c2ccccc2nc(SCc2nc(-c3ccccc3)no2)n1-c1ccc(F)cc1 | 1.5% | -9 | -6 | -4 | -36 | 7% | -6.7
CC1Cc2ccccc2N1C(=O)Cn1cc(C(F)(F)F)ccc1=O (stereo not given) | 0.4% | -20 | 20 | 5 | · | · | -2.4
CC(OC(=O)Cc1c[nH]c2ccccc12)C(=O)NC1CCCCC1C (stereo not given) | 0.6% | -2 | 5 | 0 | -11 | · | 0.7
COCCCn1c(SCC(=O)NCc2ccco2)nc2sc3c(c2c1=O)CCC3 | 2.0% | 2 | -1 | 2 | -9 | ? | 2.4
CCOc1nc(C)ccc1-c1noc(-c2ccccn2)n1 | 0.6% | -20 | 16 | 6 | -17 | 0% | -1.1
COc1ccccc1-c1nc(SCC(=O)N(C)c2ccccc2)c2c(=O)n(C)c(=O)n(C)c2n1 | 1.5% | -3 | 8 | 5 | 7 | 11% | -2.5
CCCCNC(=S)N/N=C/c1ccc(C)s1 | ? | -11 | -11 | -8 | -2 | 16% | -5.8
